NPYLR7 ag: mosquito NPYLR7 agonism. HEK293T NPYLR7/Galpha15, GCaMP6s calcium fluorescence. 270,000 tested, 0.15% active. activation, % at 10 µM; in the data active = activation above about 40%;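 note: 0% = vehicle and 100% = reference agonist at the receptor; some compounds past the cut are filed as inactive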
NPYLR7 ag max-min: also measured in NPYLR7 ag; calls as there; activation, %; measured here: Max-Min RFU normalised activation; some inactives read as strong as hits;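 span of the calcium signal over five minutes; 0% = vehicle and 100% = native peptide agonist; compound fluorescence can raise it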
Numbers without * were called inactive.

SMILES	NPYLR7 ag	NPYLR7 ag max-min
O=S(=O)(C=Cc1ccc(Cl)cc1)N1CCCC1c1ccc2c(c1)OCCCO2 (stereo not given)	6	16
Cc1cc(C(=O)N(Cc2cccnc2)c2nc3c(C(C)C)cccc3s2)nn1C	7	6
COCCN1CC(C(=O)NCCCSC)CCC1=O (stereo not given)	2	0
O=C(C[n+]1cccc(O)c1)c1ccc(OC(F)F)cc1	0	-5
C=CCN(C(C)C(=O)c1c(C)c(C(=O)OCC)n(C)c1C)S(=O)(=O)c1cccc(C(F)(F)F)c1 (stereo not given)	-11	-2
CCNC(=O)N1CCC(C(NC(=O)c2ccccc2Cl)C(=O)NC(C)CC)CC1 (stereo not given)	0	-3
COC(=O)CC[C@H]1CNC(=O)[C@@H]2[C@@H](CCN2C(=O)NC(C)C)N1C	-9	-12
CN(C)c1cccc(Nc2ccc(-c3ccc(OC(F)(F)F)cc3)cn2)c1	-11	-9
Cc1noc2nc(C3CC3)cc(C(=O)NC(C)c3ccccc3Cl)c12 (stereo not given)	0	21
O=c1oc2ccc(Br)cc2cc1-c1nnc(Nc2ccc(F)cc2)s1	-3	-10
CCOC(=O)Nc1sc(C(=O)OCC)c(C)c1C(=O)OCC	5	1
CC(C)(C)c1ccc(COc2coc(CN3CCCN(C(=O)c4cc(Cl)cnc4Cl)CC3)cc2=O)cc1	0	-6
O=C(Nc1cccc(F)c1)c1cccn(OCc2ccccc2)c1=O	16	17
Cc1ccc2nc(CNc3ccc(-c4nccn4C)nn3)cn2c1	0	-5
COc1ccc(-c2cc(C(=O)Nc3cccc(C)c3C)c3ccccc3n2)cc1	2	-2
Cc1nc(CCNC(=O)C2CCC(=O)N(CCc3cccc(F)c3)C2)sc1C (stereo not given)	6	4
CCN1CCCC1CNC(=O)CCC1CCN(Cc2nc(C(C)C)cs2)CC1 (stereo not given)	10	7
CN(C)CCN(Cc1c(-c2ccccc2)noc1N1CCCCC1)C(=O)C1CC1	5	8
Cc1ccc(F)c(C(=O)N2CCN(c3ncccc3C(=O)NCc3ccc4c(c3)OCO4)CC2)c1F	13	4
C=CCc1ccccc1OCCN(C)C(=O)c1c[nH]c2c(C)cccc2c1=O	1	-5
O=c1[nH]nc(-c2cccc3ccccc23)c2ccccc12	-2	-4
CSCCCCNS(=O)(=O)c1ccc(Br)cn1	-1	-2
CCC(=O)N1CCCC(C(=O)N2CCCC2Cc2ccc(C)cc2)C1 (stereo not given)	-2	-7
COc1ccc(CN2CCC2(C)C(=O)Nc2cnc3ccccc3c2)cc1 (stereo not given)	5	-1
COc1ccc2c(c1C/C=C(\C)CO)OCCC2	6	11
COc1ccc(CCN(Cc2ccc(C)o2)C(=O)CNC2CC2)cc1OC	-8	-15
Cc1nc(NCC2CCN(C3CCCC3)CC2)c2cnn(C)c2n1	4	-7
CN(C)CCSc1nc2cc(S(=O)(=O)N3CCCCC3)ccc2o1	0	-3
CCOC1CCCN(C(=O)C2CCC2)C1 (stereo not given)	-2	0
COc1cc(F)c(CN2CC(c3ccncc3)C2)c(F)c1	-2	-2

15 entries already listed, ordered by SMILES length, low to high.
SMILES	NPYLR7 ag	NPYLR7 ag max-min
CCOC1CCCN(C(=O)C2CCC2)C1 (stereo not given)	-2	0
CSCCCCNS(=O)(=O)c1ccc(Br)cn1	-1	-2
COc1ccc2c(c1C/C=C(\C)CO)OCCC2	6	11
COc1cc(F)c(CN2CC(c3ccncc3)C2)c(F)c1	-2	-2
O=c1[nH]nc(-c2cccc3ccccc23)c2ccccc12	-2	-4
Cc1ccc2nc(CNc3ccc(-c4nccn4C)nn3)cn2c1	0	-5
Cc1nc(NCC2CCN(C3CCCC3)CC2)c2cnn(C)c2n1	4	-7
O=C(Nc1cccc(F)c1)c1cccn(OCc2ccccc2)c1=O	16	17
CN(C)CCSc1nc2cc(S(=O)(=O)N3CCCCC3)ccc2o1	0	-3
CCC(=O)N1CCCC(C(=O)N2CCCC2Cc2ccc(C)cc2)C1 (stereo not given)	-2	-7
COc1ccc(CCN(Cc2ccc(C)o2)C(=O)CNC2CC2)cc1OC	-8	-15
CCN1CCCC1CNC(=O)CCC1CCN(Cc2nc(C(C)C)cs2)CC1 (stereo not given)	10	7
Cc1nc(CCNC(=O)C2CCC(=O)N(CCc3cccc(F)c3)C2)sc1C (stereo not given)	6	4
COc1ccc(-c2cc(C(=O)Nc3cccc(C)c3C)c3ccccc3n2)cc1	2	-2
Cc1ccc(F)c(C(=O)N2CCN(c3ncccc3C(=O)NCc3ccc4c(c3)OCO4)CC2)c1F	13	4

(further entries)
SMILES	NPYLR7 ag	NPYLR7 ag max-min
O=C(c1ccc(F)cc1)N1CC[C@H]2[C@H](CCCN2C(=O)c2ccc(-n3ccnc3)cc2)C1	28	13
COc1ccc(S(=O)(=O)N2CCC(Cc3ccccc3)CC2)cc1N1CCN(C(=O)c2ccc(F)cc2C(F)(F)F)CC1	24	10
CN(C)c1nc(Cl)c(CN(CC2CCN(C3CCCC3)CC2)CC2CCCO2)s1 (stereo not given)	3	1
Cc1ccc(-c2cc(NCCO)ncn2)cc1F	8	6
c1cncc(Cc2nnc3n2CCN(c2nccc(C4CCCC4)n2)CC3)c1	0	-2
C=C1c2ccccc2C(=O)N1CC(=O)Nc1ccccc1	-5	-6
CC(C)COc1ccccc1CN(C)C(=O)c1ccoc1	-5	-6
O=c1[nH]c(NC2CCCCC2)nnc1Cc1ccc(Cl)cc1	6	3
CN(C)c1nc(N)nc(Cn2nc(-c3ccc(F)cc3)oc2=O)n1	-3	-1
CCOC(=O)c1c(C)n(-c2ccc(I)cc2)c2ccc(O)cc12	-6	2
CN(C)N1C(=O)CC(N2CCCC2)C1=O (stereo not given)	14	10
CCOc1ccc(S(=O)(=O)N2CCOCC2)cc1NC(=O)CCc1ccsc1	-7	-11
Cc1ccccc1CN1CCN(c2nc(C(=O)N3CCCCC3)co2)C1=O	-1	-2
O=S(=O)(NS1=CC=CCN1S(=O)(=O)c1ccccc1)c1ccccc1 (stereo not given)	11	8
O=S(=O)(Nc1ccc(Cl)cc1)c1cccs1	1	-2
CC(=O)Oc1c(-c2ccc(NC(=O)C3CC3)cc2)c(-c2cccc(N(C)C)c2)nn1-c1cccc(C)c1	18	20
O=c1c2ccccc2c(=O)c2c1c(Oc1ccccc1)cc1oc3ccccc3[nH]c12	-2	-7
O=C(NC(c1ccccc1)C(F)(F)F)c1ccc2ccccc2c1 (stereo not given)	7	3
Nc1cc(-c2cccc(C(F)(F)F)c2)nn1-c1ccc(C(=O)NCc2ccncc2)cc1	-8	-14
Cc1ccn2c(=O)nc(SCCc3ccccc3)nc2c1	0	-2
CC(=O)NCCNc1nc2cc(-c3ccccc3C)sc2c(=O)n1C	9	7
Cc1ccc(Cl)cc1-n1c(SCc2ccccc2)nnc1C(C)NC(=O)Nc1c(Cl)cccc1Cl (stereo not given)	-9	-8
N#Cc1c(C(F)(F)F)cc(=O)[nH]c1SCc1nc(-c2ccc(F)cc2)no1	6	0
O=C(NCc1ccco1)C1CCCN1C(=O)Cc1ccccc1F (stereo not given)	11	7
CN(NC(=O)c1ccc(CSc2nnc3ccccn23)cc1)c1ccccc1	1	-5
CCCNC(=O)CN1CCN(c2nc(-c3cccs3)nc3sc4c(c23)CCC4)CC1	2	0
S=c1[nH]c(-c2ccccc2)cn1N=Cc1ccc2c(c1)OCO2	1	-1
CCCSc1ncccc1C(=O)NCCc1ccccc1F	-6	-8
CN(CCc1ccccc1)C1CCCN(C(=O)c2nccc3ccccc23)C1 (stereo not given)	1	4
CCN(Cc1nc(COC)no1)C(=O)c1cnc(C)cn1	-1	-6
CN(C)CCCn1c2c(c(SCC(=O)Nc3ccccc3)nc1=O)CCCC2	0	4
Cc1cccnc1C(NC(=O)C1CCN(Cc2ccncc2)CC1)c1ccccc1 (stereo not given)	-15	-20
CCN1CCN(C2=C(Cl)C(=O)N(c3cccc(C(F)(F)F)c3)C2=O)CC1	-5	-5
CCC(=O)N1CCSC12C(=O)N(Cc1cccc(C)c1)c1ccccc12 (stereo not given)	5	7
Cc1ccccc1OCCCn1c(=O)sc2ccccc21	5	4
COc1ccccc1-c1c[nH]cc1C(=O)N1CCN(C)CC1C (stereo not given)	6	5
O=[N+]([O-])c1cc(S(=O)(=O)N2CCCC2)ccc1Sc1nnc2ccccn12	27	36
O=[N+]([O-])c1cccc(/C=C/c2nc(C=Nc3cccc(F)c3)c(O)o2)c1	1	5
NCc1coc(-c2cccs2)n1	3	5
O=C(CSc1ccc2nnc(CCNC(=O)c3ccc(F)cc3)n2n1)NCc1ccc(F)cc1	4	-9
CCN(CC)CCN1CCN(c2cncc(-c3ccc4ccccc4c3)n2)CC1	-16	-18
CCCn1cc(S(=O)(=O)c2ccc(F)cc2)c(=O)c2cc(CC)ccc21	-7	-12
CNc1ncccc1[C@@H]1C[C@H](NC(=O)c2ccccc2)C[C@H](C(C)C)O1	-2	-4
CCCCCN1N=C(c2ccc(Cl)cc2)Cn2c1nc1c2c(=O)n(C)c(=O)n1C	3	4
O=c1[nH]c2ccccc2n1C1CCN(c2nc(C(F)(F)F)nc3ccccc23)CC1	2	1

An excerpt of these results, with values under each structure:
Below each SMILES: NPYLR7 ag, NPYLR7 ag max-min
CC(=O)Oc1c(-c2ccc(NC(=O)C3CC3)cc2)c(-c2cccc(N(C)C)c2)nn1-c1cccc(C)c1
    18, 20
O=c1c2ccccc2c(=O)c2c1c(Oc1ccccc1)cc1oc3ccccc3[nH]c12
    -2, -7

Later entries.
SMILES	NPYLR7 ag	NPYLR7 ag max-min
COc1cc(F)ccc1Oc1ccc2c(C3CC3)noc2n1	7	4
Cc1cc(C(=O)CSc2nnnn2-c2ccccc2)c(C)n1CCc1ccccc1	-4	-9
CC(=O)c1c(C)[nH]c(C(=O)CN2CCCC2)c1C	3	9
CCCN(Cc1ccc(C(O)(c2ccc(OC)cc2)c2ccc(OC)cc2)o1)Cc1ccc(C)s1	1	4
CN(C)C(=O)c1ccccc1-c1ccccc1C(=O)O	-2	29
CCOC(=O)c1sc(C(C)NC(=O)c2ccc(CC)o2)nc1C (stereo not given)	-1	-4
O=C(NCC(=O)N1CCCC(C(F)(F)F)C1)c1ccccc1 (stereo not given)	3	2
O=C(c1ccc(-c2cccc(C(F)(F)F)c2)s1)N1CCc2ccccc2C1c1ccccc1Cl (stereo not given)	22	11
C=CCn1c(SCC(=O)NC(N)=O)nc2sc3c(c2c1=O)CCC3	0	30
COc1ccc(N2C(=O)/C(=C/c3ccc(-c4ccc(Br)cc4)o3)C=C2c2ccccc2)cc1	0	6
COc1ccc(CCNC(=O)CN2CN(c3ccccc3)C3(CCN(C(=O)c4cc(C(F)(F)F)cc(C(F)(F)F)c4)CC3)C2=O)cc1OC	24	33
Cc1ccc(CN(Cc2ccccc2)C(=O)CNC2CC2)s1	-9	-19
C=CCc1cccc2cc(C(=O)Nc3ccc(C)cc3[N+](=O)[O-])c(=O)oc12	0	2
Cn1nc(C(=O)N2CCC3(CCCO3)CC2)c2ccccc2c1=O	2	1
N#Cc1c(NC(=O)c2cccc(S(=O)(=O)N3CCCCC3)c2)sc2c1CCCC2	0	-6
CC1CN(S(=O)(=O)c2ccc(OC(F)F)c(Cl)c2)CC(c2ccccc2)O1 (stereo not given)	7	5
NC(=O)c1nc(-c2cccc(O)c2)nc2c1[nH]c(=O)n2-c1ccc(Cl)c(Cl)c1	2	7
O=C1CSc2nnc(C3COc4ccccc4O3)n2N1 (stereo not given)	-2	-1
Cc1ccsc1C=CC(=O)c1cc(Cl)ccc1O	-2	-4
CCCCCCCCn1c(C)cn2c3c(=O)n(C)c(=O)n(C)c3nc12	2	8
C=C(C)Cn1c(Br)nc2c1c(=O)[nH]c(=O)n2C	2	1
O=C(c1ccccc1OC(F)(F)F)N1CCN(Cc2cc(=O)c(OCc3ccc(C(F)(F)F)cc3)co2)CC1	27	15
Cc1nn(C)c(C)c1CN(C)C(=S)Nc1cccc2ccccc12	-2	-3
CCN1C(=O)N(CCCc2cccnc2)C(=O)C12CCN(Cc1cccc(-c3ccccc3C)c1)CC2	6	-3
COc1ccc(-n2nnc3c(N4CCN(C(=O)CCC5CCCCC5)CC4)ncnc32)cc1	-5	-10
C[Si](C)(C)C#CCc1c[nH]c(=O)[nH]c1=O	-2	0
Cc1c(C)n2c3c(=O)n(C)c(=O)n(C)c3nc2n1CCc1ccccc1	5	-3
NNC(=O)Cc1nc(-c2cccnc2)n[nH]1	-1	-3
CCOC(OCC)P(=O)(C(C)C)C(C)C	-13	-18
CCN1CCN(C(=O)c2ccccc2N2CCC(NC(=O)c3cccc(OC)c3)CC2)CC1	3	13
COc1ccccc1-c1cnn2c(C)c(C(=O)NCCc3ccc(F)cc3)cnc12	15	4
COc1ccc(C(=O)c2c(N)c(C(=O)Nc3ccccc3C(F)(F)F)c3ccccn23)cc1	-2	-8
Cc1ccc(C2(O)CCN(Cc3ccc4onc(C)c4c3)CC2)nc1	11	10
CC1(C(=O)NCc2ccc3c(c2)OCO3)CCN1C(=O)C1(c2ccccc2)CCCC1 (stereo not given)	8	5
CC(CSc1ccc(F)cc1)C(=O)NCC1(N2CCOCC2)CCSC1 (stereo not given)	4	1
COCCNC(=O)C(NC(=O)c1ccccc1F)C1CCN(C(=O)c2ccc(Cl)cc2)CC1 (stereo not given)	7	7
CCn1nc(C)c(Cn2ccnc2-c2ccc(C3CCCCO3)o2)c1C (stereo not given)	4	2
COc1ccc2cc([N+](=O)[O-])cnc2c1	3	3
CCCCCCC(=O)N(CCC)CC(=O)Nc1cc(C(C)(C)C)nn1-c1ccc(Cl)cc1	-2	7
CCCN(Cc1cc(NC(=O)NCC)ccc1N(C)C)C(=O)C1CC1	-2	4
Cc1cc(Cl)cc2c3c([nH]c12)CCC(NC(=O)C(C)C)C3 (stereo not given)	26	18
COc1cn(CC(=O)NCc2ccc(C)cc2)c(CSc2nc(C)cs2)cc1=O	-6	-10
COc1ccc(CCC(=O)Nc2cc(C)on2)cc1Br	-1	-1
Fc1ccc(SCc2csc(-c3ccc(C(F)(F)F)cc3)n2)cc1F	5	6
COCc1nc2cc(-c3ccccc3CO)ccc2o1	-1	-2
C#CCN(CC#CC)CC(O)COc1ccc(F)cc1 (stereo not given)	7	5
Cn1c(=O)c2c(nc(N3CCN(Cc4ccccc4)CC3)n2CCCc2ccccc2)n(C)c1=O	9	3
FC(F)Oc1ccc(-c2cn(-c3ccccc3)c3[n+]2CCCS3)cc1	3	8
CCn1ccnc1CN1CCC(CNC(=O)c2ncccc2C)C1 (stereo not given)	11	7

An excerpt; rates above refer to the full screens.
